GIRK2 activ – opens human GIRK2 potassium channels; P48051; HEK293-GIRK2 thallium flux, Thallos fluorescence; calls only for hits at 25 µM; actives 0.05% (n = 63,000);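 active = among the strongest 0.2% of first-round signals and kept after retests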;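 also: first round at about 10 µM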
Target sequence (P48051 whole entry, looked up): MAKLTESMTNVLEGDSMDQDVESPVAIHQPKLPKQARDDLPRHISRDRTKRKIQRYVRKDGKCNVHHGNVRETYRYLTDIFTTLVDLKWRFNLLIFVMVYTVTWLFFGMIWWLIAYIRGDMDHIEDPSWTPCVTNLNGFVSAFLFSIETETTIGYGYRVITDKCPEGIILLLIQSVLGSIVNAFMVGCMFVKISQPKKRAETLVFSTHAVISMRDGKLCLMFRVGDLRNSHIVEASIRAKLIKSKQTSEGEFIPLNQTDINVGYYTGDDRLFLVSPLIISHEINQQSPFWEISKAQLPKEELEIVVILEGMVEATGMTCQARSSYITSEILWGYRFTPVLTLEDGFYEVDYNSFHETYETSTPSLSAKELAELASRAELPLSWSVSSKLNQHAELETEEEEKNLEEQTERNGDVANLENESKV
Calls only; i = inactive. The list is partial, so the mix of outcomes need not match the whole.

canonical_smiles,GIRK2 activ
N#Cc1cccc(NC(=O)Cn2cccc(-c3nc(-c4ccc(Cl)cc4)no3)c2=O)c1,i
Cc1cc(C)n(-c2nc3c(c(=O)n(CC(N)=O)c(=O)n3C)n2Cc2ccccc2Cl)n1,i
O=C(Cn1ccn2nc(-c3ccc(Cl)cc3)cc2c1=O)NC1CCCCC1,i
O=S(=O)(C1CC1)N1CC(c2nc(C3CC3)no2)C1,i
O=C(/C=C/c1ccc2c(c1)OCO2)Nc1ccc(-n2nnc(C(=O)NC3CCCC3)n2)cc1,i
N#Cc1cccc(C(=O)N2CCC(CSCc3ccco3)CC2)c1,i
CCn1nccc1C(=O)Nc1sccc1-c1nc2ccccc2s1,i
Cc1cc(=O)n(CCC(=O)O)c(N)n1,i
C=CCNC(=O)c1cc(-c2cccc([N+](=O)[O-])c2)oc1C,i
O=C(Nc1ccc2c(c1)OCCO2)c1ccc(=O)n(Cc2cccc(F)c2)n1,i
Cc1ccccc1C(=O)NCC#CCOc1ccc2c(c1)OCO2,i
O=C(Nc1nccs1)c1csc(-c2cnccn2)n1,i
O=C(CCc1nc2sc3c(c2c(=O)[nH]1)CCCCC3)N1CCN(c2ccccc2F)CC1,i
COc1cccc(-c2noc(CCn3nc(-c4ccc5c(c4)OCO5)ccc3=O)n2)c1OC,i
COc1ccc(-c2noc(-c3c(SC)nn(CC(=O)NCc4ccccc4Cl)c3N)n2)cc1,i
Cc1onc(-c2ccccc2Cl)c1C(=O)N1CCC2(CC1)OCCCO2,i
COc1ccc(-c2noc(-c3nnn(-c4cc(Cl)ccc4OC)c3C)n2)cc1OC,i
COc1ccc(S(=O)(=O)N2CCCc3cc(NS(=O)(=O)C(C)C)ccc32)cc1,i
O=C(NCCCN1CCCC1=O)c1nnn(-c2ccc(F)cc2)n1,i
COc1ccc(CCC(=O)N2CCC3(CC2)OCCS3)cc1,i
CC1CCCC(C)N1C(=O)C(=O)c1c[nH]c2ccccc12 (centres undefined),i
Cc1nc2sccn2c1C(=O)O,i
COCCn1c(=O)[nH]c2c(-c3ccccn3)nsc2c1=O,i
CCOc1ccc(C(=O)Nc2ccc3c(c2)CCCN3C(C)=O)cc1OCC,i
O=C(NCC1CCN(Cc2cccs2)CC1)c1cc(=O)c2ccccc2o1,i

Sorted by length of the SMILES (smallest number first): six of the compounds above
canonical_smiles,GIRK2 activ
O=S(=O)(C1CC1)N1CC(c2nc(C3CC3)no2)C1,i
C=CCNC(=O)c1cc(-c2cccc([N+](=O)[O-])c2)oc1C,i
O=C(Nc1ccc2c(c1)OCCO2)c1ccc(=O)n(Cc2cccc(F)c2)n1,i
COc1ccc(-c2noc(-c3nnn(-c4cc(Cl)ccc4OC)c3C)n2)cc1OC,i
O=C(CCc1nc2sc3c(c2c(=O)[nH]1)CCCCC3)N1CCN(c2ccccc2F)CC1,i
Cc1cc(C)n(-c2nc3c(c(=O)n(CC(N)=O)c(=O)n3C)n2Cc2ccccc2Cl)n1,i

The listing continues:
canonical_smiles,GIRK2 activ
COCCN1CCC(NC(=O)c2cccc(OC)c2OC)CC1,i
COC(=O)c1ccc(C(=O)OC)c(NC(=O)C2=Cc3ccccc3OC2)c1,i
O=C(Nc1nc(CN2CCc3ccccc3C2)cs1)c1cccs1,i
COc1ccc(N2CCN(S(=O)(=O)N(C)C)CC2)cc1,i
Cc1cc(N2CCN(S(=O)(=O)c3ccc(F)c(Cl)c3)CC2)ncn1,i
COc1ccc(-c2nc(CSc3nc4c(c(=O)[nH]3)CCC4)c(C)o2)cc1,i
COc1cccc2sc(N3CC(OC(=O)c4cc5cccc(OC)c5oc4=O)C3)nc12,i
CC(C)(C)c1csc(CN2CCN(CC(=O)NCc3ccco3)CC2)n1,i
O=C(N1CCC(c2nnc(C3CC3)o2)CC1)C1(c2ccccc2)CCOCC1,i
COc1ccccc1OCC#CCNC(=O)C(C)(C)Oc1ccc(Cl)cc1,i
COc1cccc(C2c3c(oc4ccc(Cl)cc4c3=O)C(=O)N2c2nc(C)cs2)c1 (centres undefined),i
CCOCCn1c(N2CCN(Cc3ccc(F)cc3)CC2)nc2c1c(=O)[nH]c(=O)n2C,i
CC(C)C(=O)O/N=c1/oc2ccccc2cc1C(=O)Nc1ccc(F)c(F)c1,i
CSCC(C)(O)CNC(=O)CSC1CCCC1 (centres undefined),i
COc1cccc(C(=O)Nc2ccc3c(c2)CCCN3C(=O)C2CC2)c1OC,i
COCCNC(=O)c1cc2c(=O)n3ccccc3nc2n(CCOC)c1=N,i
Cc1ccccc1NC(=O)Nc1nc2cc3c(cc2s1)OCO3,i
O=C(NCc1ccccc1)NC1CCCC(OC(=O)Nc2ccccc2)C1 (centres undefined),i
Cc1nc(-c2ccc(N3CCN(S(=O)(=O)c4ccc(F)c(Cl)c4)CC3)nc2)no1,i
Cc1cccc(NC(=O)Cn2cc(C(=O)Nc3ccccc3)c(=O)c3ccc(C)nc32)c1,i
Cc1ccccc1OCC(=O)NC1CCCC(OC(=O)Nc2ccccc2)C1 (centres undefined),i
Cc1nnc(NC(=O)CN2CCN(CC(O)c3ccco3)CC2)s1 (centres undefined),i
COCCCn1c(C(=O)NC(c2ccccc2)c2ccccc2)cc2c(=O)n3cccc(C)c3nc21,i
O=S(=O)(NCC1(c2cccs2)CC1)c1ccc(N2CCCCS2(=O)=O)cc1,i
O=C(Cn1c2ccccc2c2ncn(Cc3nc(-c4ccccc4)no3)c(=O)c21)NC1CCCCC1,i
CCOC(=O)c1ccc(NC(=O)c2ccc(CSc3nnnn3-c3ccccc3)cc2)cc1,i
O=c1c(-c2ccc(Cl)cc2)coc2c3c(ccc12)OCN(Cc1cccs1)C3,i
Cc1cccc(NC(=O)CSc2ccnc3ccc(Cl)cc23)c1,i
COc1ccc(-c2noc(-c3nnn(-c4cccc(C)c4)c3C)n2)cc1F,i
CN(C)CC#CCNC(=O)c1ccccc1C(=O)c1ccccc1,i
COC(=O)c1ccc(S(=O)(=O)N(CCc2cccs2)Cc2ccoc2)cc1,i
O=C(CSc1nnc2scc(-c3ccccc3)n12)NCC1CCCO1 (centres undefined),i
Nc1c(-c2nc(-c3ccccc3)cs2)nnn1-c1cccc(C(F)(F)F)c1,i
Cc1noc(C)c1CC(=O)NCCOc1ccc(F)cc1,i
CCOc1ccc2nc(N(CCCn3ccnc3)C(=O)Cc3ccc(F)cc3)sc2c1,i
O=C(Cc1ccc(-c2ccccc2)cc1)NCC1CCN(C(=O)c2ccncc2)CC1,i
CS(=O)(=O)N1CCN(C(=O)CN2CCN(c3cccc(Cl)c3)C2=O)CC1,i
COc1ccc(C2(CNS(=O)(=O)/C=C/c3ccccc3)CCCC2)cc1,i
O=C(O)COc1ccc2c(c1)O/C(=C\c1cccs1)C2=O,i
CCOC(=O)CN(C)/C=C(\C#N)S(=O)(=O)c1ccccc1,i
Cc1ccc(NC(=O)Cn2cnc3sc(-c4nc(-c5ccc(C)cc5)no4)c(C)c3c2=O)cc1,i
O=S(=O)(NCCN1CCN(c2ccc(Cl)cc2)CC1)c1cc(F)ccc1F,i
CCn1c(=O)c([N+](=O)[O-])c(NCc2ccco2)c2ccccc21,i
COC(=O)Cn1c(=O)c2c(nc3n(-c4ccccc4OC)c(C)c(C)n23)n(C)c1=O,i
O=C(NC1=NCCS1)C12CC3CCC(CC(C3)C1)C2,i
O=C(Nc1ccc(Cl)c2ncsc12)c1nc2ccccc2s1,i
CCS(=O)(=O)N1CCCc2ccc(NS(=O)(=O)c3cccc(C)c3)cc21,i
O=C(Cn1c(=O)nc(-c2ccccc2)c2cc(Cl)ccc21)NCc1cccs1,i
COc1ccc(S(=O)(=O)Cc2nc(-c3ccc(OCc4ccccc4)cc3)no2)cc1,i
COC(=O)c1sccc1S(=O)(=O)N1CC(Oc2nc3c(OC)cccc3s2)C1,i

Structural class: the compounds so far containing a nitro group on carbon
canonical_smiles,GIRK2 activ
C=CCNC(=O)c1cc(-c2cccc([N+](=O)[O-])c2)oc1C,i
CCn1c(=O)c([N+](=O)[O-])c(NCc2ccco2)c2ccccc21,i

Continued.
canonical_smiles,GIRK2 activ
COc1ccc(C(=O)c2oc3ccc(NC(=O)C(C)C)cc3c2C)cc1,i
COc1cc(NC(=O)Cn2nc3ccc(C(=O)NCc4ccccc4)cn3c2=O)cc(OC)c1OC,i
Cc1nc(NC(=O)c2csc(Nc3ncccn3)n2)sc1C,i
O=C(NCc1ccccn1)c1ccc(Cn2c(=S)[nH]c3cc4c(cc3c2=O)OCO4)cc1,i
O=C(CCC1NC(=O)c2ccccc2NC1=O)Nc1nc2ccccc2[nH]1 (centres undefined),i
CCOc1ccc(-c2csc(-n3nc(C)cc3NC(=O)c3cc(=O)c4ccccc4o3)n2)cc1,i
O=C(Nc1ccccc1)N1CCN(Cc2nnnn2-c2ccc(F)c(F)c2)CC1,i
CC(C(=O)NCCN(C)C)n1nc(-c2ccc(F)cc2)ccc1=O (centres undefined),i
C=CCn1c(=O)c2c(nc3n(-c4ccc(OC)cc4OC)c(C)c(C)n23)n(C)c1=O,i
COc1ccc(-c2noc(-c3nnn(-c4ccccc4Cl)c3C)n2)cc1OC,i
CCOC(=O)CCC(=O)N1CCCC(c2nnc(-c3cccs3)o2)C1 (centres undefined),i
Cc1c(O[C@@H]2O[C@H](CO)[C@@H](O)[C@H](O)[C@H]2O[C@H]2OC[C@](O)(CO)[C@H]2O)occc1=O,i
O=C(c1cccc(Br)c1)N1CC(c2nc(-c3ccc[nH]c3=O)no2)C1,i
COc1cc(/C=C/C(=O)NCC2(c3cccs3)CC2)cc(OC)c1OC,i
Nc1c(-c2nc(-c3ccc4c(c3)OCO4)cs2)nnn1-c1ccc(F)c(Cl)c1,i
O=C(Cc1ccc([N+](=O)[O-])cc1)c1ccc(Br)cc1O,i
Cn1c(=O)c(Oc2ccccc2)cc2cnc(NC3CCOCC3)nc21,i
COc1ccc(-c2noc(-c3nnn(-c4cc(OC)cc(OC)c4)c3N)n2)cc1,i
COC(=O)c1[nH]c(C)c(C(O)=C2C(=O)C(=O)N(CCN(C)C)C2c2ccc(C)o2)c1C (centres undefined),i
O=C(c1ccc2c(c1)OCO2)N1CCN(CC(F)(F)F)CC1,i
COc1cccc(COc2coc(C(=O)N3CCC(C(N)=O)CC3)cc2=O)c1,i
COC(=O)c1ccc(Cn2nc(-c3ccccc3)ccc2=O)o1,i
Cc1ccc(Cl)cc1N1CCN(S(=O)(=O)c2nn(C)cc2C(=O)NCCC(C)C)CC1,i
Nc1c(C(=O)c2cccc(-c3cccnc3)c2)cnn1-c1ccc(F)cc1F,i
CC(C)CCN1C(=O)CCc2cc(NC(=O)NCCc3ccccc3)ccc21,i
CCc1ccc(S(=O)(=O)c2cnc3ccc(C)cc3c2N2CCOCC2)cc1,i
CCOC(=O)Cc1csc(NC(=O)CN2CCN(CC(=O)c3ccco3)CC2)n1,i
N#Cc1ccc(OC2CCN(S(=O)(=O)c3cccc4cccnc34)CC2)nc1,i
CCCC/C=C\C/C=C(/C)C/C=C\C/C=C\CCCC(=O)O[C@H](COC(=O)CCCCCCCCCCCCCCCCC)COP(=O)([O-])OCC[N+](C)(C)C,i
COc1cccc(-c2ccc(=O)n(Cc3nc(-c4cc(OC)c(OC)c(OC)c4)no3)n2)c1,i
O=C(c1ccc2c(c1)OCO2)N1CCN(CC(O)c2ccco2)CC1 (centres undefined),i
COC(=O)CSc1cc(C)c(C#N)c2nc3ccccc3n12,i
O=c1occ2cnc3ccccc3n12,i
COC(=O)c1ccc(S(=O)(=O)N2CC(Oc3nc4c(F)cccc4s3)C2)cc1,i
Cc1ccc(C(=O)N(CCN2CCOCC2)c2nc3ccc(F)cc3s2)cc1C,i
Cc1ccc(C(=O)c2ccccc2C(=O)NCCn2cnc(-c3ccccc3)cc2=O)cc1,i
O=C(c1cc(=O)c2ccccc2o1)N1CC(c2nc(-c3ccccn3)no2)C1,i
CCc1cccc(CC)c1NC(=O)c1cc2cc([N+](=O)[O-])ccc2oc1=O,i
CCCCCn1c(SCC#N)nc2cc(C(=O)NCc3ccccc3)ccc2c1=O,i
O=C(CCCCCCCCc1ccc(O)c(O)c1)c1c(O)cccc1O,i
COc1cc(/C=C2/CCn3c2nc(=O)c2ccccc23)cc(OC)c1OC,i
COc1ccc(-c2cc3c(=O)n(CC(=O)NCc4cccs4)ccn3n2)cc1,i
COC(=O)Cn1c(=O)c2c(nc3n(-c4cc(C)ccc4OC)c(-c4ccccc4)cn23)n(C)c1=O,i
N#Cc1cccc(C(=O)NCCCn2ccnc2-c2ccccc2)c1,i
COc1ccccc1C1(CNC(=O)c2ccc(F)c(F)c2)CCOCC1,i
Cc1cc(N2C(=O)CCS2(=O)=O)cc(C)c1S(=O)(=O)Nc1ccc(C(C)C)cc1,i
O=C(COc1ccc2ccccc2c1)NCCN1CCN(c2ccccc2)CC1,i
CNC(=O)CSc1ncc(-c2ccc(C)cc2)n1-c1ccc(C)cc1,i
COc1ccc(-c2cc3c(SCC(=O)Nc4ccc5c(c4)OCO5)nccn3n2)cc1,i
Cc1cc(C(O)CCNC(=O)C(=O)Nc2ccc3c(c2)CCCN3C(=O)c2cccs2)c(C)o1 (centres undefined),i

Other structures
canonical_smiles,GIRK2 activ
O=C(Nc1ccccc1-c1ccc(=O)[nH]n1)C1CC(=O)N(c2cccc(F)c2)C1 (centres undefined),i
Cc1cc(C)n(-c2ncc(NC(=O)CCc3ccccc3)cn2)n1,i
CCOC(=O)N1CCN(Cc2cc(=O)oc3cc(O)c(Cl)cc23)CC1,i
Cc1cc2nn(CC(=O)NCc3ccccc3)c(=O)n2c(-c2ccc(C(F)(F)F)cc2)n1,i
COc1ccc(OC)c(CNC(=O)C2CCCN(c3ccc(-c4ccccc4)nn3)C2)c1 (centres undefined),i
CCSc1ccccc1C(=O)NCc1ccc(C(=O)c2cccs2)s1,i
Cc1cc(C(=O)Nc2ccc(-n3nnn(C)c3=O)cc2)c(C)o1,i

Assay outcomes (PubChem BioAssay)
